Screening results: PubChem, National Center for Advancing Translational Sciences (NCATS)
VACV Venus inh = qHTS for Stage-Specific Inhibitors of Vaccinia Orthopoxvirus: Venus Reporter Primary qHTS; Vaccinia virus Venus reporter expression, fluorescence; Potency, µM (top dose mostly 36.5 µM), inactives show at the top dose activity change, negative = inhibition, actives largely listed as inhibitors; 0.46% of 330,000 active; AID 720580, 2013; active means well fitted inhibition curve with a large enough effect; inconclusive means small, poorly fitted or top-dose-only effect; inactive means no such curve, though single readings can be large or run the other way; tested in A549 cells; further: nearly all actives have a fitted effect of over 30% in size; inactives centre near -10
Vaccinia mCherry = qHTS for Stage-Specific Inhibitors of Vaccinia Orthopoxvirus: mCherry Reporter Primary qHTS; Vaccinia virus mCherry reporter infection, fluorescence; about a quarter of the inactives have no number; Potency, µM (highest dose often 36.5 µM), for the others: top-dose activity change, negative = inhibition, actives largely listed as inhibitors; 0.63% of 310,000 active; active = well fitted inhibition curve with a large enough effect; inconclusive = small, poorly fitted or top-dose-only effect; inactive = no such curve, though single readings can be large or run the other way; tested in A549 cells; further: nearly all actives have a fitted effect of over 35% in size; inactives centre near -10
An asterisk follows results filed as active; i = inactive; ? = inconclusive; . = no result given; & = joins results of further samples; [ ] = dose if it differs, or a comment. On the % scale 0 is the no-effect control and ±100 the full control effect; potency means the concentration at half of the fitted maximal effect.

mol | VACV Venus inh | Vaccinia mCherry
Cc1ccc(-n2cc(CN(C)Cc3nccn3C)c(-c3ccc(F)cc3)n2)cc1 | -23% | -20%
CC(C)OC(=O)CSc1nnc(CNc2nc(-c3ccccc3)cs2)n1C | -21% | .
COc1cc(-c2ccc3sc(-c4ccsc4)c(C#CCO)c3c2)cc(OC)c1OC | ? | ?
NC(N)=N/N=C(\N=Nc1ccccc1)c1ccc(Cl)cc1 | ? | ?
CC(C)CN1CCC1(C)C(=O)Nc1cc(-c2ccccc2)nn1C (stereo not drawn) | 7% | 27%
O=C(Nc1ccc(Br)cn1)c1cccc(-c2cc3ccccc3oc2=O)c1 | ? | ?
CS(=O)(=O)c1ccc(C(=O)OCC(=O)Nc2cc(C(F)(F)F)ccc2Cl)cc1[N+](=O)[O-] | -20% | -25%
Clc1cccc(N2Cc3cc(N4CCOCC4)ccc3-n3nncc3C2)c1 | 2% | i
Cn1c(=NC(=O)c2ccc(S(=O)(=O)N3CCCC3)cc2)sc2cc(F)ccc21 | -7% | -11%
CCCCOc1ccc(C(=O)N2CCN(CC(=O)Nc3ccc(C)cc3)CC2)cc1OC | -1% | -6%
CCCCN(C(=O)CCn1c(=O)oc2ccccc21)c1ccccc1 | 0% | 5%
COc1ccc(Cl)cc1N(CC(=O)NCc1ccccn1)S(=O)(=O)c1ccc(C)cc1 | -16% | i
O=C(c1ccc(N2CCCC2=O)cc1)N1CCN(c2cccc(C(F)(F)F)c2)CC1 | -13% | -25%
CC1CCN(S(=O)(=O)c2ccc(C(=O)Nc3sc4c(c3C(N)=O)CC(C)(C)NC4(C)C)cc2)CC1 | -29% | ?
O=c1cc(N2CCc3ccccc32)[nH]c(=O)n1-c1ccccc1 | -3% | -10%
COCCNC(=O)CN(c1ccc(F)cc1)S(=O)(=O)c1ccc2c(c1)OCCO2 | 7% | -11%
O=C(COC(=O)c1ccc(Cl)c(S(=O)(=O)N2CCCCCC2)c1)Nc1ccccc1 | -6% | -12%
O=C(Nc1nccs1)c1cc2c(s1)-c1ccccc1OC2 | -19% | -7%
CN(C)S(=O)(=O)c1ccc(C(=O)Nc2ccc(F)cc2F)cc1 | -18% | i
C/C(=N\NC(=O)COc1ccc(C#N)cc1)c1ccccc1OC(F)F | -7% | -15%
COc1ccc(OC)c(NC(=O)c2ccc(CSc3ncccn3)cc2)c1 | -13% | -1%
Cc1ccn2c(=O)nc(SCC(=O)NCc3ccco3)nc2c1 | -12% | i
COc1ccc(OCC(=O)Nn2c(-c3cccc(OC)c3)nc3ccccc3c2=O)cc1 | -12% | i
Cc1cc(Br)cn2cc(C(=O)O)nc12 | -3% | -6%
O=C(O)c1cccnc1Oc1ccccc1 | 5% | -4%
C[C@H](CO)N1C[C@H](C)[C@@H](CN(C)C(=O)Nc2ccc(C(C)(C)C)cc2)OCc2cnnn2CCCC1=O | -19% | -13%
COc1ccc(NC(=O)COC(=O)c2cnccn2)cc1Cl | -16% | -22%
CC(C)(O)C#Cc1ccc(C(=O)Nc2ccc3c(c2)OCO3)s1 | -26% | -22%
CCOC(=O)N1CCC(n2c(SCC(=O)NCCc3ccc(S(N)(=O)=O)cc3)nc3ccccc3c2=O)CC1 | -3% | i
CC(=O)N1CCc2c(sc(NC(=O)CSc3ccc(C)cc3)c2-c2nc3ccccc3s2)C1 | -5% | i
O=C(Nc1cccc(F)c1)C1CCCN1C(=O)OCc1ccccc1 (stereo not drawn) | -3% | i
COc1ccc(Oc2cnn(-c3ccccc3)c(=O)c2Br)cc1 | -19% | -1%
COc1cccc(N2CCN(C(=O)CCc3nnc4ccc(N5CCCC5)nn34)CC2)c1 | -13% | ?
COc1ccc(-c2c(C)n([O-])c(C)c(C)[n+]2=O)cc1 | -2% | -10%
O=C(COC(=O)c1ccc(Cl)nc1)NCCNC(=O)COC(=O)c1ccc(Cl)nc1 | -20% | -27%
COc1cccc(NC(=O)CSc2nc(=O)n(Cc3ccncc3)c3c2CCCC3)c1 | -3% | -12%
O=C(CSc1nnnn1-c1ccc2c(c1)OCO2)NCc1cccs1 | -12% | .
CC(C)(C)OC(=O)N[C@H]1C=C[C@H](OC(=O)CC(=O)OCC(F)(F)F)C1 | -9% | i
CC(C)NC(=O)Cn1nc(N2CCN(c3ccccc3)CC2)ccc1=O | -9% | -5%
Cc1ccc(OCCNCc2ccccc2)c(C)c1 | -2% | -10%
CC1(Oc2cccc(F)c2)CCN(Cc2ccc3ccccc3c2)C1 (stereo not drawn) | 1% | -4%
c1ccc(-c2csc3ncnc(NCC4COc5ccccc5O4)c23)cc1 (stereo not drawn) | ? | ?
CC(C)(C)NC(=O)C1CCC(CNc2c(N3CCCCC3)c(=O)c2=O)CC1 (stereo not drawn) | -16% | -13%
O=C(NCCc1ccccc1)C1CCN(S(=O)(=O)c2ccc(Br)s2)CC1 | -10% | -12%
CC1=NNC(=O)/C1=C\c1cn(-c2ccccc2)nc1-c1ccc(F)cc1 | 10µM* | 10µM*
CCc1cc(C(=O)N2CCc3c([nH]c4ccccc34)C2c2ccc(OC)cc2F)no1 (stereo not drawn) | -16% | 11µM*
COc1cc([N+](=O)[O-])ccc1NC(=O)CC(C)C | -6% | i
CCc1ccc(NS(=O)(=O)c2ccc3c(c2)CCN3C(=O)CCC(=O)O)cc1 | -12% | -13%
COc1ccc(CC2C(=O)NC(C)C(=O)N(C)C3C(=O)N(C)C(Cc4ccc(O)c(c4)Oc4ccc(cc4)C3O)C(=O)NC(C)C(=O)NC(C)C(=O)N2C)cc1 (stereo not drawn) | 0.089µM* | 0.32µM*
CCCOn1nnnc1-c1ccccc1 | -21% | .
COc1ccc(OC)c(C(=O)c2coc3ccc(OC(C)=O)cc23)c1 | -30% | -29%
Cc1cccc(Nc2nc3c(c(=O)n(C)c(=O)n3C)n2Cc2ccccc2)c1 | -9% | ?
COc1cc(/C=N/NC(=O)c2cc(-c3ccccc3)sc2N)cc(OC)c1OC | -28% | -28%
CC(=O)Nc1ccc(S(=O)(=O)N2CCN(Cc3ccccc3[N+](=O)[O-])CC2)cc1 | -7% | -7%
CCOC(=O)C1=C(N)N(c2ccccc2Oc2ccccc2)C(=O)C1 | -9% | .
O=C(Nc1ccc(F)cc1F)c1csc(-c2ccncc2)n1 | -13% | -13%
Cc1ccc(CNC(=O)C(C)n2nc(C)n3c(cc4sccc43)c2=O)cc1 (stereo not drawn) | -1% | -5%
COCCNC(=O)C(=O)NCCN1CCNCC1 | -12% | i
Cc1cc2oc(C(=O)Nc3ccc(S(=O)(=O)N4CCC(C)CC4)cc3)cc(=O)c2cc1C | -7% | -19%
CC(=O)Nc1ccc(NC(=O)CSc2ccc(C(F)(F)F)cc2[N+](=O)[O-])cc1 | -6% | -20%

The list goes on:
mol | VACV Venus inh | Vaccinia mCherry
CCOC(=O)c1c(-c2ccc(C)o2)csc1NC(=S)NC(=O)c1ccccc1Br | -22% | -5%
COCCNC(=O)C1CCCN(C(=O)Cc2cccc3ccccc23)CC1 (stereo not drawn) | 7% | 0%
CC(=O)Nc1ccc(S(=O)(=O)Nc2ccc3ccccc3n2)cc1 | 3% | -6%
CCOC(=O)c1c(C#N)c(SCC(=O)Nc2ccc(OC)cc2)nc2c1CN(CC)CC2 | -10% | -3%
COc1ccc(CNC(=O)CSc2nnnn2-c2ccccc2)cc1 | -4% | -17%
CCOc1cccc(-c2nnc3sc(COc4ccc(OC)cc4)nn23)c1 | -12% | -8%
COc1cc(CCC(=O)Nc2c(C(=O)N3CCN(c4ccccc4OC)CC3)oc3ccccc23)on1 | -11% | ?
COCCNC(=O)CN(CC1CCCO1)C(=O)CCC(=O)Nc1ccccn1 (stereo not drawn) | -13% | .
CCN1CCN(c2cc(C)c3cc(NC(=O)c4cncc(Br)c4)ccc3n2)CC1 | -28% | -25%
COCCN(CCOC)c1ncc(Cl)c(C(=O)c2c(C)cc3ccccn23)n1 | 0% | -14%
COc1ccc(NC(=O)C2(C)Cc3c(-c4ccc(N(C)C)cc4)ccnc3O2)cc1 (stereo not drawn) | -18% | ?
Cc1nnc(SCC(=O)Nc2nccs2)n(N)c1=O | -7% | 0%
O=C1NC(=S)SC1=Cc1ccc(Cl)cc1 | 20% | i
CCOC(=O)/C(=N/Nc1ccc(C)cc1)S(=O)(=O)c1ccc(Cl)cc1 | -3% | i
C#CCOCCOCCOCCNc1nc(N2CCN(C(=O)Cn3cc(CCO)nn3)CC2)nc(N2CCN(C(=O)[C@H](CCCCN)n3cc(CCCC)nn3)CC2)n1 | 8% | i
Cc1ccc(S(=O)(=O)N2CCCCC2)cc1NC(=O)CSc1ncnc2ccccc12 | ? | 11µM*
Cc1ccc(S(=O)(=O)NC(=O)Nc2cccc([N+](=O)[O-])c2)cc1 | -16% | -7%
Cc1nn(C)c(C)c1S(=O)(=O)N1CCC(C(=O)NC2CCCCCC2)CC1 | -7% | 7%
Cc1ccc(NS(=O)(=O)c2cccc(C(=O)Nc3c(C)n(C)n(-c4ccccc4)c3=O)c2)cc1 | -21%[7.34 µM] | -9%[7.34 µM]
COc1ccccc1N1CCN(c2nc(CNC(=O)C3CC34CCCC4)nc3ccccc23)CC1 (stereo not drawn) | -3% | -15%
O=C(Nc1ccc(-n2cccn2)cc1)C1CCN(Cc2ccccn2)CC1 | -8% | i
O=C(/C=C/[C@H]1O[C@@H](n2ccc(=O)[nH]c2=O)[C@H](O)[C@@H]1O)N1CCN(CCc2ccccc2)CC1 | -2% | 4%
O=C(Nc1cccc(S(=O)(=O)NC2=NCCC2)c1)c1ccccc1 | -18% | -6%
COc1ccc(C)cc1NC(=O)Cn1cc(S(=O)(=O)Cc2ccccc2Cl)c2ccccc21 | -24% | -25%
O=C(Cc1c(F)cccc1Cl)NNC(=O)c1ccco1 | -19% | 0%
COc1ccc(-c2nc(SCC(=O)Nc3cccc(C(C)=O)c3)n[nH]2)cc1 | -14% | -14%
COc1ccc2[nH]cc(CCNc3ccnc(-c4cccc(NS(C)(=O)=O)c4)n3)c2c1 | 0% | 13%
CC(C)(C)NC(=O)C(c1ccccc1F)n1c(=O)c(-c2ccccc2)nc2ccccc21 (stereo not drawn) | -13% | i
CC(C)NS(=O)(=O)c1ccc(CCC(=O)NCc2ccncc2)cc1 | -15% | -13%
O=C(c1ccc(Cl)cc1)N1CCN(CCc2ccncc2)CC1 | -9% | -14%

Profiles from above. Order of screens: VACV Venus inh, Vaccinia mCherry
O=C1NC(=S)SC1=Cc1ccc(Cl)cc1 in the list: 20%, i
O=C(Nc1ccc(-n2cccn2)cc1)C1CCN(Cc2ccccn2)CC1 in the list: -8%, i

(continued)
mol | VACV Venus inh | Vaccinia mCherry
CC(C)C1Cc2nc(Cl)c(C#N)cc2CO1 (stereo not drawn) | -4% | -12%
COc1ccc(CC(N)c2csc(NC(=O)c3ccccc3)n2)cc1 (stereo not drawn) | -9% | 21%
COc1ccc(OC)c(CNC(=O)CCC(=O)N2Cc3ccccc3Oc3ncccc32)c1 | -5%&-11% | -6%&-20%
CC1(C)C2CCC1(CS(=O)(=O)Nc1ccc(S(=O)(=O)NC3CCCCC3)cc1)C(=O)C2 (stereo not drawn) | -16% | -29%
O=C(Oc1ccc([N+](=O)[O-])cc1)c1cccnc1 | -13% | i
O=C(Nc1ccc2c(c1)Cc1ccccc1-2)c1ccncc1 | -10% | -19%
Cc1cc(C)cc(-n2nnnc2SCC(=O)Nc2nc(-c3ccc(Cl)cc3)cs2)c1 | -4% | i
CCC(=O)Nc1nnc(SCC(=O)N2c3ccccc3CC2C)s1 (stereo not drawn) | -12% | -13%
COc1ccc(OC)c(CN2CCC3(CCC(CNC(=O)c4ccco4)O3)CC2)c1 (stereo not drawn) | -1% | -13%

Among those listed so far, eleven have a thiophene ring, fused or not.
mol | VACV Venus inh | Vaccinia mCherry
COc1cc(-c2ccc3sc(-c4ccsc4)c(C#CCO)c3c2)cc(OC)c1OC | ? | ?
CC1CCN(S(=O)(=O)c2ccc(C(=O)Nc3sc4c(c3C(N)=O)CC(C)(C)NC4(C)C)cc2)CC1 | -29% | ?
O=C(Nc1nccs1)c1cc2c(s1)-c1ccccc1OC2 | -19% | -7%
CC(C)(O)C#Cc1ccc(C(=O)Nc2ccc3c(c2)OCO3)s1 | -26% | -22%
CC(=O)N1CCc2c(sc(NC(=O)CSc3ccc(C)cc3)c2-c2nc3ccccc3s2)C1 | -5% | i
O=C(CSc1nnnn1-c1ccc2c(c1)OCO2)NCc1cccs1 | -12% | .
c1ccc(-c2csc3ncnc(NCC4COc5ccccc5O4)c23)cc1 (stereo not drawn) | ? | ?
O=C(NCCc1ccccc1)C1CCN(S(=O)(=O)c2ccc(Br)s2)CC1 | -10% | -12%
COc1cc(/C=N/NC(=O)c2cc(-c3ccccc3)sc2N)cc(OC)c1OC | -28% | -28%
Cc1ccc(CNC(=O)C(C)n2nc(C)n3c(cc4sccc43)c2=O)cc1 (stereo not drawn) | -1% | -5%
CCOC(=O)c1c(-c2ccc(C)o2)csc1NC(=S)NC(=O)c1ccccc1Br | -22% | -5%
